Assay outcomes deposited in PubChem by National Center for Advancing Translational Sciences (NCATS).
CtBP-E1A blk – CtBP/E1A binding inhibition; AlphaScreen GST-E1A/His-CtBP binding, 1536-well; active compounds read low; control for the full effect not named in the record; activity change, % (test concentration not listed); 340,000 tested, 0.49% active; AID 651724; in the data active means activity change below about -65%; inconclusive means about -30% to -65%; inactive means above about -30%; also: % is scaled to controls: 0 for no effect and ±100 for the full control effect
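GST-E1A and His-tagged CtBP (125 nM each as 5X stock) were preincubated with pin-transferred compound for 2 h at 37 °C in the dark, then glutathione donor and nickel acceptor beads were added for 1 h before AlphaScreen reading.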
gsp antagonist – antagonists of gsp mutant (McCune-Albright syndrome); 340,000 tested, 0.4% active; gsp-mutant cells, cAMP HTRF, 30 min; control for the full effect not named in the record; Potency, µM (doses to about 76.9 µM), inactives show at the top dose activity change, negative = inhibition, usual class: inhibitors; active = falling curve of any shape with a large fitted effect; inconclusive = falling curve, mostly with a smaller effect; inactive = flat or rising curve; cell line not stated here;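 also: intracellular cAMP measured with PDE inhibitor Ro 20-1724 present during compound exposure; potency is read from the fitted curve at half-maximal effect; % is scaled to controls: 0 for no effect and ±100 for the full control effect; nearly all actives have a fitted effect of over 65% in size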
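Cells, 2000/well, grown 16–24 h in DMEM 10% FBS with 0.5 mg/ml G418, then compounds plus […] (300 uM addition stock), 30 min at 37C. cAMP read by HTRF (cAMP-d2 and anti-cAMP antibody-K in lysis buffer) after 30 min RT.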
D2 agonist – human D2 receptor agonism in beta-arrestin assay; activation, % (concentration not given with the values); 360,000 tested, 0.084% active; DiscoveRx PathHunter D2 beta-arrestin, luminescence, 90 min; 100% = 57 uM dopamine signal; in the data active = activation above about 40%; inconclusive = about 15% to 40%; inactive = below about 15%; also: compound concentration not given in the record; the text of the record calls up to 30% inactive
Target sequence (P14416 whole entry, looked up): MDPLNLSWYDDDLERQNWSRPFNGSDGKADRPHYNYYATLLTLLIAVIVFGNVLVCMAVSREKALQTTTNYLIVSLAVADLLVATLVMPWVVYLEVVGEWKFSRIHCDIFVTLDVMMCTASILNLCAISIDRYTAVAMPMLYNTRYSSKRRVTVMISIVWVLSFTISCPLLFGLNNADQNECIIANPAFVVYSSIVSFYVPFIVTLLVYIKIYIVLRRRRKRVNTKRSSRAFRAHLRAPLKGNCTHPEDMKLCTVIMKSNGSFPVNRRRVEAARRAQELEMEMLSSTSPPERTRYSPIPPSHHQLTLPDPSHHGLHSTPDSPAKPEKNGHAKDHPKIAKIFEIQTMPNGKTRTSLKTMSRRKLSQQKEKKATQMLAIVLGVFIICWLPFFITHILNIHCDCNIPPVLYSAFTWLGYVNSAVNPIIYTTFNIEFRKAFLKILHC
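DiscoveRx PathHunter D2 beta-arrestin cells (2,100/well) attached overnight, then compound-stimulated 90 min at 37 C in HBSS/10 mM HEPES/0.1% Tween-20 buffer; beta-galactosidase complementation read by luminescence after 1 h at ambient temperature. Dopamine 57 uM final (EC100) as control.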
D2 PAM – positive allosteric modulators of human D2 dopamine receptor; potentiation, % (no concentration beside the values); DiscoveRx D2 beta-arrestin cells, luminescence, 90 min; 100% = 57 uM dopamine signal; 360,000 tested, 0.23% active; AID 624464; active = potentiation of 50% or more; inconclusive = 30% to 50%; inactive = 30% or less;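 also: compound concentration not given in the record; tested on top of an EC20 dose of dopamine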
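PathHunter beta-arrestin assay in DiscoveRx D2 cells. Compounds were added with an EC20 of dopamine (50 nM final) for 90 min at 37 deg C. Luminescence was read 1 h after detection reagent, with 57 uM dopamine as the EC100 control.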
Six1-Eya2 blk – inhibitors of human Six1/Eya2 interaction; AID 651725; activity change, % (test concentration not listed); Q15475+O00167; AlphaScreen GST-Six1/His-Eya2 binding, biochemical; active compounds read low; control for the full effect not named in the record; 360,000 tested, 0.56% active; in the data active = activity change below about -65%; inconclusive = about -30% to -65%; inactive = above about -30%; also: % is scaled to controls: 0 for no effect and ±100 for the full control effect
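AlphaScreen luminescence read after one hour at 37 °C in darkness. Pin-transferred compounds met GST-Six1 and His-Eya2 protein (5X stock 250 nM/500 nM) plus glutathione donor and Ni-chelate acceptor beads (5X, 50 ug/mL).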
gsp ag – agonists of gsp mutant (McCune-Albright syndrome); 340,000 tested, 0.13% active; Potency, µM (series often up to 76.9 µM), for inactives: top-dose activation (cAMP increase), most hits filed as activators; gsp mutant cells, cAMP HTRF, 30 min; control for the full effect not named in the record; active = well fitted activation curve with a large enough effect; inconclusive = small, poorly fitted or top-dose-only effect, or another doubt; inactive = no such curve, though single readings can be large or run the other way; cell line not stated here;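 also: phosphodiesterase inhibitor Ro 20-1724 added with compounds to block cAMP breakdown; potency is read from the fitted curve at half-maximal effect; nearly all actives have a fitted effect of over 60% in size; about a fifth of the inactives were tested at one dose only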
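Cells stably selected in G418 were plated at 2000/well, grown 16-24 hr, then given compounds in DMSO with the PDE inhibitor […] (300 uM solution added) for 30 min at 37C; cAMP was read by HTRF.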
The depositor's hits bear a star; ? = inconclusive; / = no result given; [ ] = another dose, or the depositor's remark. Random draw from the library, and some 1.4% of all compounds hit somewhere here.

smiles	CtBP-E1A blk	gsp antagonist	D2 agonist	D2 PAM	Six1-Eya2 blk	gsp ag
O=C(CSc1nnnn1C1CCCC1)Nc1ccc2c(c1)OCO2	0.0	9.9%	-2.6	-11.6	-15.1	?
O=c1cc(N2CCCC2)c(-c2ccccc2)n[nH]1	-16.5	3.9%	-2.2	-1.8	6.4	-1.6%
CCOC(=O)C1CCN(C(=O)COc2ccc(S(=O)(=O)NC(C)(C)C)cc2)CC1	-2.4	-3.2%	-0.7	-4.2	2.5	-11.2%
Cc1ccc(N2C(=O)C3ON(c4ccccc4)C(CC(C)C)C3C2=O)cc1 (stereo not drawn)	40.6	?	-1.3	-8.7	36.0	3.2%
CC1=C(CCN2CCN(C3CCCC3)C(CCO)C2)C(C)(C)CCC1 (stereo not drawn)	8.0	17.4%	-1.4	-14.1	-1.3	-13.8%
O=C(CSc1ncccn1)N/N=C/c1cccs1	-2.1	-0.8%	1.4	-4.1	-4.8	-19.2%
CN(C)c1ccc(-c2ccnc3c2CC(C)(C(=O)Nc2ccc(Cl)c(C(F)(F)F)c2)O3)cc1 (stereo not drawn)	-10.8	/	3.3	-4.2	?	/
Cc1ccc(N=Nc2c(=O)[nH]n3c(C)cc(C)nc23)cc1	-4.8	-32.6%	-2.0	10.7	-2.2	-20.5%
c1ccc2[nH]c(-c3cnco3)cc2c1	-7.9	1.0%	-4.0	-4.4	0.5	2.5%
O=C(CCN1CCCCO1)NC1CCCc2c1cnn2-c1ccc(F)cc1F (stereo not drawn)	1.5	/	-3.3	-3.6	-2.5	-118.0%[inhibitor]
COc1ccc(Cl)cc1NC(=O)CN(C)C(=O)c1ccc(COc2ccccc2)cc1	-10.8	-30.7%	0.9	-6.2	-4.6	-1.2%[15.4 µM]
O=C(c1cc2cc(Cl)ccc2[nH]1)N1CCN(Cc2ccc3c(c2)OCO3)CC1	/	-12.4%	5.2	-11.1	-25.0	15.4%
CCSc1nnc(NC(=O)CSc2nc3c(c(=O)n2-c2ccccc2)SCC3)s1	6.7	-2.2%	-1.1	12.1	3.3	16.3%
CCOC(=O)c1cc(-c2ccc(C)cc2)nc2nc(SC)[nH]c(=O)c12	-0.9	43.1%[activator]	-4.9	-5.5	7.5	29.7%
C=CCn1c(=O)c(C(=O)NCCNCC)c(O)c2ccccc21	2.5	13.6%	-0.5	-8.6	4.0	-1.2%
Cc1ccc(S(=O)(=O)Nc2cc(=O)[nH]c(SCC(=O)Nc3cccc(C(F)(F)F)c3)n2)cc1	1.4	5.8%	3.3	-3.1	2.5	7.9%[15.4 µM]
CCOC(=O)C1=C(C)N(C)C(=O)NC1c1ccc2c(c1)OCO2 (stereo not drawn)	9.5	2.3%	8.6	-0.7	-5.6	-9.6%
COc1cc(O)c2c(=O)c3c(O)ccc(O)c3oc2c1	-18.1	-7.7%	11.9	?	-20.6	/
Cc1cccc(NC(=O)Cn2cnc(S(=O)(=O)N3CCCC3)c2)c1C	-13.3	6.5%	-2.5	-13.5	-17.5	10.2%
CCCCc1cc(=O)oc2cc(C)cc(OCC(=O)NCc3cccnc3)c12	1.8	?	-1.0	-4.4	-0.2	?
CCn1nnnc1SCC(=O)N1c2ccccc2CCc2ccccc21	1.0	-21.3%	-5.4	-1.4	-0.5	?
O=C(N/N=C/c1cn(-c2ccccc2)nc1-c1ccc2c(c1)OCCO2)c1ccncc1	-3.8	-9.6%	-4.0	-9.7	-10.7	-16.1%[15.4 µM]
CCc1c(C)c(C#N)c2nc3ccccc3n2c1NCc1ccco1	-0.9	-3.4%[15.4 µM]	-1.2	-0.6	-8.1	?
CCN(CC)C(=O)COc1c(-c2ccco2)oc2ccccc2c1=O	-2.0	-5.0%	-0.2	-3.1	0.0	-27.7%[15.4 µM]
Cc1ccc(S(=O)(=O)NC(CC(C)C)C(=O)NCc2ccco2)cc1 (stereo not drawn)	1.8	1.9%	0.4	-0.3	-0.2	6.5%
COc1ccc(NC(C)=O)cc1S(=O)(=O)NC(Cc1ccccc1)C(=O)O (stereo not drawn)	-1.1	-0.1%	-2.2	-6.5	4.5	2.5%
NNC(=O)c1cncn1-c1ccc(F)cc1	-14.4	8.8%	0.7	15.9	15.7	4.7%[15.4 µM]
O=C(COC(=O)/C=C/c1ccco1)NCc1ccc2c(c1)OCO2	0.2	2.0%	-0.4	-2.3	-4.7	-7.3%[15.4 µM]
CCOCC(=O)N1CCN(c2ccc(F)cc2)CC1	0.6	3.3%	-1.2	2.7	10.6	2.2%
CCOc1ccccc1C1C(C#N)=C(N)SC(N)=C1C#N	3.0	6.0%	-1.7	-6.6	-5.5	?
OC(c1ccccc1)c1nc(-c2csc3ccccc23)cs1 (stereo not drawn)	0.8	/	-4.1	-18.0	-1.8	/
O=C(CN(Cc1ccc(Cl)cc1)C(=O)CN1C(=O)COc2ccccc21)NC1CCCC1	-1.4	-1.8%	-1.5	-0.2	-18.0	-10.2%[15.4 µM]
CCCc1nc(N)nc2c1C(=O)CC(C)(C)C2	40.5	6.6%	-6.4	-2.9	20.3	25.3%
CC(=O)c1c(C)[nH]c(C(=O)OCc2c(F)cccc2Cl)c1C	2.1	-3.3%	10.1	0.8	-0.3	-5.9%[15.4 µM]
CN(C)CCCN=Cc1c(-c2ccccc2)[nH]n(-c2nc3ccccc3s2)c1=O	-3.9	0.3%	2.9	-16.1	-6.5	1.9%
O=C(c1cccc(S(=O)(=O)N2CCCC2)c1)N1CCN(c2ccccc2)CC1	3.3	?	1.0	-2.7	-2.8	-35.4%[inhibitor]
Cc1ccc(C(=O)Nc2ccc(S(=O)(=O)Nc3cnc4ccccc4n3)cc2)cc1	-6.0	-30.2%	0.7	0.0	-17.4	24.0%
COc1ccc(-c2cn(-c3ccc(C)cc3)c(=O)n2CC(=O)Nc2cccc(F)c2)cc1	6.2	0.4%	-1.7	-8.0	-0.1	-27.4%
Cc1ccc(C(=O)Nc2nnc(C)s2)o1	5.1	6.1%	0.9	6.5	6.0	-3.2%
O=C1NN(CCO)C(=S)Nc2ccccc21	-9.5	/	-3.2	-10.1	-1.0	?
CC(c1ccccc1)N1CC(C(=O)NC2CCCC2)CC1=O (stereo not drawn)	1.1	2.0%	2.1	-5.6	-0.3	5.4%
COc1ccccc1NC(=O)c1nnn(Cc2ccccc2)c1NC(=O)C(F)(F)F	-11.9	-3.4%	-2.4	-5.0	-2.6	12.7%
Cc1cc(C)c(S(=O)(=O)NCc2cccnc2)c(C)c1	9.5	10.6%	-3.9	1.7	1.4	3.5%
COc1ccc(Cl)cc1NC(=O)NCCN1CCNC1=O	5.1	15.5%	-12.6	-12.0	14.3	3.7%[15.4 µM]
CC(=O)C1C(c2ccc(Br)cc2)c2c(noc2C)CC1(C)O (stereo not drawn)	1.7	-11.5%	-0.2	-3.4	0.7	10.1%

At a glance, part of the list above.
smiles	CtBP-E1A blk	gsp antagonist	D2 agonist	D2 PAM	Six1-Eya2 blk	gsp ag
OC(c1ccccc1)c1nc(-c2csc3ccccc23)cs1 (stereo not drawn)	0.8	/	-4.1	-18.0	-1.8	/
O=C(CN(Cc1ccc(Cl)cc1)C(=O)CN1C(=O)COc2ccccc21)NC1CCCC1	-1.4	-1.8%	-1.5	-0.2	-18.0	-10.2%[15.4 µM]
CCCc1nc(N)nc2c1C(=O)CC(C)(C)C2	40.5	6.6%	-6.4	-2.9	20.3	25.3%

Next section:
smiles	CtBP-E1A blk	gsp antagonist	D2 agonist	D2 PAM	Six1-Eya2 blk	gsp ag
O=c1[nH]cc(NCCNc2ncc(C(F)(F)F)cc2Cl)c(=O)[nH]1	/	10.0%	-5.0	-5.3	-0.6	?
CCOC(=O)C(Sc1nnc2c3ccccc3n(CC)c2n1)C(=O)OCC	-71.8*	9.3%	-3.8	3.2	?	13.4%
Cc1c(Cl)ccc2sc(NC(=O)c3ccco3)nc12	-10.2	?	-4.2	-2.4	3.1	-8.9%
CCOc1ccc(/C=C2\C(=O)c3ccccc3OC2c2ccccc2)cc1 (stereo not drawn)	-17.6	-9.3%	-1.5	-10.3	-8.5	-52.0%[inhibitor]
Cc1cccc(C2c3[nH]c4ccccc4c3CCN2C(=O)c2cc(CC(C)C)[nH]c(=O)n2)n1 (stereo not drawn)	-11.3	-20.3%	-4.9	-10.2	-10.8	-21.8%
Cc1cc(C)nc(SCCCn2c(=O)[nH]c3ccccc32)n1	-2.6	-13.9%	2.1	20.2	6.5	9.5%
Fc1ccccc1COc1ccc(Br)cc1CNCc1ccncc1	-2.8	?	-1.3	-36.9	0.5	10.3%
COC(=O)c1ccc2c(c1)sc(=NC(=O)CCS(=O)(=O)c1ccccc1)n2C	-0.6	-2.5%	3.0	-2.9	-15.3	2.9%
O=c1c2ccccc2nc(-c2cccs2)n1-c1ccc2ccccc2c1	14.7	-14.6%	-1.8	-15.4	-2.0	-29.9%
C[n+]1c(-c2ccccc2)sc([S-])c1-c1ccccc1	-7.0	?	-6.1	-22.6	3.4	1.3%[15.4 µM]
Cc1cnc(C(=O)OCC(=O)NC(C)C)cn1	1.7	-7.7%	-2.5	-3.8	4.0	-25.5%
Cc1cc(C)c(C#N)c(SCC(=O)c2cc(C)n(CCc3ccccc3)c2C)n1	-5.9	-9.4%	0.0	-3.0	-6.6	-40.1%[inhibitor]
Cc1cc(C)cc(N(CC(=O)NC2CCCC2)C(=O)CCC(=O)Nc2cc(C)on2)c1	-0.7	7.4%	-5.7	-6.8	0.5	1.4%[15.4 µM]
CCc1cccc(C)c1NC(=O)c1ccc2nc(N3CCOCC3)sc2c1	5.3	-2.8%	-2.6	-6.6	1.5	41.4%
Cc1ccc(Nc2nnc(SCC(=O)Nc3cc(C(=O)O)ccc3C)s2)c(C)c1	/	-2.0%	-3.2	-7.2	1.8	-30.1%

Sorted by SMILES length (descending): part of the list above
smiles	CtBP-E1A blk	gsp antagonist	D2 agonist	D2 PAM	Six1-Eya2 blk	gsp ag
O=c1[nH]cc(NCCNc2ncc(C(F)(F)F)cc2Cl)c(=O)[nH]1	/	10.0%	-5.0	-5.3	-0.6	?
Fc1ccccc1COc1ccc(Br)cc1CNCc1ccncc1	-2.8	?	-1.3	-36.9	0.5	10.3%
Cc1c(Cl)ccc2sc(NC(=O)c3ccco3)nc12	-10.2	?	-4.2	-2.4	3.1	-8.9%
